Bioassay records deposited in PubChem by National Center for Advancing Translational Sciences (NCATS).
HSD17B inhib – inhibitors of human HSD17B10 dehydrogenase. hit rate 7.6% among 75,000. recombinant HSD17B10, NADH fluorescence kinetic; many of its hits are not listed in these tables. Potency, µM (doses to about 57.1 µM), for inactives: at the top dose activity change, negative = inhibition, usual class: inhibitors. AID 893; active = well fitted inhibition curve with a large enough effect; inconclusive = small, poorly fitted or top-dose-only effect; inactive = no such curve, though single readings can be large or run the other way;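 also: the protocol describes HADH2 (HSD17B10) and not the HSD17B4 of the title; nearly all actives have a fitted effect of over 70% in size; most hits overshoot -100% by far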
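Enzyme plus compound, 15 min room temperature; substrate mix added (NAD+ 1 mM, beta-hydroxybutyryl-CoA 90 uM final); plates read kinetically for NADH fluorescence. HADH2 was His-tagged, E. coli-derived, 20 nM.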
Starred values were filed as active, the others as inactive; u = inconclusive; & = joins results of further samples; [ ] = dose if it differs, or a comment. % is scaled to controls: 0 for no effect and ±100 for the full control effect; potency is read from the fitted curve at half-maximal effect. Only part of the results is shown (hit frequency here may not be typical).

SMILES | HSD17B inhib
O=C(CSc1ncnc2c1oc1ccccc12)OCc1ccccc1 | -15.1%
COc1ccc(NC(=O)N2CCCC3(CCN(C(=O)c4cccc(F)c4)CC3)C2)cc1 | 1.2%
O=c1c2cc3ccccc3n2cnn1Cc1ccccc1F | u
COC(=O)c1cccc(S(=O)(=O)N2CCN(c3nc4ccccc4s3)CC2)c1 | 23.1%
Cc1ccc(NC(=O)CN2C(=O)NC3(CCC(C)CC3)C2=O)c(Cl)c1 (stereo unspecified) | -3.6%
Cc1cccc(C)c1NC(=O)CSc1nnc(-c2ccoc2C)n1C | 1.5%
Cc1ccc(NC(=O)c2ccc(F)c(S(=O)(=O)N3CCOCC3)c2)cc1F | 16.3%
CN(CC[C@@H](Oc1ccc(-c2ccccc2)cc1)c1ccc(F)cc1)CC(=O)O | -0.6%
Cc1cc(C)c(NC(=O)CN2CCN(C)CC2)c(C)c1 | 9.9%
COCCNC(=O)NC(=O)COC(=O)C12CC3CC(CC(NC(C)=O)(C3)C1)C2 | 6.6%

4 of the compounds above, tab-delimited.
Structure	HSD17B inhib
Cc1cccc(C)c1NC(=O)CSc1nnc(-c2ccoc2C)n1C	1.5%
CN(CC[C@@H](Oc1ccc(-c2ccccc2)cc1)c1ccc(F)cc1)CC(=O)O	-0.6%
O=C(CSc1ncnc2c1oc1ccccc12)OCc1ccccc1	-15.1%
Cc1cc(C)c(NC(=O)CN2CCN(C)CC2)c(C)c1	9.9%

The list continues:
SMILES | HSD17B inhib
CC(C)Oc1cc(O)c2c(=O)c(-c3ccc(O)cc3)coc2c1 | -13.8%
O=c1c(-c2cccc(Cl)c2)nc2cncnc2n1Cc1ccccc1Cl | -9.6%
Cc1ccc(-n2c(SCc3cn4ccsc4n3)nc3ccccc3c2=O)cc1 | 18.9%
Cc1c(NC(=O)C2CC=CCC2C(=O)O)c(=O)n(-c2ccccc2)n1C (stereo unspecified) | -4.1%
C=C1C(N)CC2CC1C2(C)C (stereo unspecified) | 5.4%
Cc1cc(NC(=O)COC(=O)CSc2nc3cc(Cl)ccc3n2Cc2ccccc2)no1 | -4.6%
COc1cc(C2NC(=O)NC(C)=C2C(=O)OCC2CCCO2)ccc1O (stereo unspecified) | 3.4%
Cc1ccc(C(CC(=O)N2CCOCC2)c2ccco2)cc1 (stereo unspecified) | -19.0%
COc1ccc(-c2nnc(SCC(=O)c3ccc(C)o3)o2)cc1 | -10.7%
C[C@]1(C(=O)NCC2CC2)C=C[C@@H](Cc2ccccc2)N1C(=O)c1ccccc1 | -2.5%
O=C(Nc1cccc(F)c1)C1CCN(C(=O)Cc2ccccc2)CC1 | 3.9%
CCCC(c1nnnn1CCOC)N1CCN(C(=O)c2ccco2)CC1 (stereo unspecified) | 1.7%
Cc1ccc(C(=O)[C@@H]2[C@H]3C4COC(O4)C(=O)[C@@H]3[C@H]3C=Cc4ccccc4N32)cc1 (stereo partly specified) | u
Nc1nnc(SCc2ccc(F)cc2Cl)s1 | u
O=C1O/C(=C\C(=O)N2CCOCC2)c2ccccc21 | 5.0%
Cc1cc2c(cc(C(=O)O)n2C)s1 | u
CCC(=O)NC(=Nc1nc2ccccc2s1)NC(=O)CC | u
Cn1c(C(=O)OCC(=O)NCc2cccs2)cc2sccc21 | 0.4%
CCCOP(=O)(c1ccc(N(C)C)cc1)C(O)c1cc(OC)c(OC)c(OC)c1 (stereo unspecified) | -11.9%
CCC(CC)C(=O)Nc1c2c(nn1-c1ccc(OC)cc1)CS(=O)C2 (stereo unspecified) | 16.3%
Cc1cc(C(=O)CCC(=O)N2CCN(S(=O)(=O)c3cccs3)CC2)c(C)s1 | 0.8%
CC1C=CCC2C(=O)N(c3cccc(C(=O)N4CCCCCC4)c3)C(=O)C12 (stereo unspecified) | 3.7%
Cc1ccc(SC(C)C(=O)N2CCCC2)cc1 (stereo unspecified) | 4.7%
CCn1c(=O)cc(SCC(=O)NCCCN2CCN(c3ccc(F)cc3)CC2)c2ccccc21 | -19.6%
Cc1ccc(NCc2nnc(SCC(=O)N3CCc4ccccc43)n2C)cc1 | 4.4%
CC(C)NC(=O)N1CCCC2(CCN(C(=O)c3csnn3)CC2)C1 | 4.7%
CC(C)CN1CCC2(CC1)CCN(C(=O)c1cccc(F)c1)CC2 | 0.5%
CCOc1ccc(NC2=NC(C(=O)NCc3ccccc3)CC(=O)N2)cc1 (stereo unspecified) | -0.6%
COCCNC(C)C(=O)C12CC3CC(CC(C3)C1)C2 (stereo unspecified) | 9.3%
O=C(O)c1ccc(S(=O)(=O)c2ccc3c(c2)C(=O)N(CC2CCCO2)C3=O)cc1 (stereo unspecified) | 7.3%
COc1ccc(C(c2nnnn2Cc2ccc(F)cc2)N2CCN(c3ccccc3)CC2)cc1 (stereo unspecified) | -7.2%
CCCC(=O)NC(C)c1nc2ccccc2n1CC (stereo unspecified) | 0.7%
Cc1ccnc(NC(=O)CSc2cc(=O)n(C)c3ccccc23)c1 | -3.9%
CCOc1cc2c3c(c1)C1(OCCO1)C(=O)N3C(C)(C)CC2C (stereo unspecified) | 3.0%
COc1ccc(N2CC(C(=O)OCC(=O)c3cccc(OC)c3)CC2=O)cc1 (stereo unspecified) | 0.1%
CC(C)c1cc(C(=O)N2CCN(C(c3ccccc3)c3ccccc3)CC2)no1 | 15.3%
CC(C)N=C(NC#N)SCc1ccccc1F | -1.6%
O=C(c1cc(-c2cccc(O)c2)on1)N1CCCCC1 | 1.5%
CCCCCCCCCCCCCCCC(=O)NC[C@@H](COP(=O)([O-])OCC[N+](C)(C)C)OCC | -4.8%
COc1cc(-c2nnc3sc(Cc4ccccc4)nn23)cc(OC)c1OC | -26.4%

The closing 2 records of the part above lead into the next:
SMILES | HSD17B inhib
CCCCCCCCCCCCCCCC(=O)NC[C@@H](COP(=O)([O-])OCC[N+](C)(C)C)OCC | -4.8%
COc1cc(-c2nnc3sc(Cc4ccccc4)nn23)cc(OC)c1OC | -26.4%
CNc1oc(C)nc1S(=O)(=O)c1ccccc1 | 7.1%
COc1ccc(N2C(=O)CC(NCc3cccs3)C2=O)cc1 (stereo unspecified) | -1.9%
CN(CCCNC(=O)c1cccc(N2CCCC2=O)c1)c1ccccc1 | 4.5%
Cc1csc(NC(=O)CCNS(=O)(=O)c2ccc3c(c2)c(=O)n(C)c(=O)n3C)n1 | 1.8%
COc1ccc(C[C@H](C)NC[C@@H](O)c2ccc(O)c(NC=O)c2)cc1 | 19.5%
O=C(O)CSCNC(=O)CC12CC3CC(CC(C3)C1)C2 | 0.9%
CCOC(=O)N1CCC(NC(=O)c2cc(C(=O)NCc3cccc(Cl)c3)ccc2CO)CC1 | 3.7%
CC(=O)Nc1ccc(OCC(O)CN2CCN(c3ccc(C)c(Cl)c3)CC2)cc1 (stereo unspecified) | 2.1%
Cc1cc2cc(CN(CCN3CCOCC3)C(=O)Nc3ccccc3F)c(=O)[nH]c2cc1C | -18.1%
O=S(=O)(c1ccccc1)N1CCC[C@@]2(CCN(c3ncccn3)C2)C1 | u
COc1ccc2c(c1OC)C(=O)N(c1cccc(C)c1)C2 | 7.0%
CC(C)=CCC/C(C)=C/CO/N=C1/C[C@@H](O)[C@@H](O)[C@@H]2[C@H]3C(=O)N(c4ccc(F)cc4F)C(=O)[C@@H]3CC[C@@H]12 | -0.8%[11.4 µM]
O=C(CCS(=O)(=O)c1cccs1)N1CCN(c2ccc(F)cc2)CC1 | -9.3%
COc1cccc(-c2nnc(SCC(=O)N3CCCC3=O)n2-c2ccccc2)c1 | 0.3%
CCn1c(SCC(=O)Nc2cc(C)on2)nc2c1c(=O)n(C)c(=O)n2C | -5.0%
CC(C)(C)NC(=O)C1CCN(C(=O)c2ccc(Br)cc2)CC1 | 1.7%
O=C(NCc1ccc2c(c1)OCO2)c1cc(-c2ccccc2)on1 | -1.8%
COc1ccc(Oc2ncc3nc(-c4ccc(OC)cc4)c(=O)n(CCC#N)c3n2)cc1 | u
O=C(Nc1ccccc1)c1ccc(S(=O)(=O)N2CCCCC2)cc1 | 2.9%
O=C(c1cccc(F)c1)n1nnc2ccccc21 | 3.2%
CCCn1c(=O)c2ccccc2n2c(SCC(=O)NCc3cccs3)nnc12 | -1.9%
CCOC(=O)N1CCN(Cc2oc(CO)cc(=O)c2O)CC1 | 9.3%
Cc1c(C(=O)O)oc2ccc(S(=O)(=O)N(CC(C)C)CC(C)C)cc12 | 4.5%
CNC(=O)CC(C(=O)O)c1ccc(OCC(C)C)cc1 (stereo unspecified) | 9.6%
Cc1ccc(O)c(-c2cc(-c3ccccc3C)[nH]n2)c1 | -13.7%
CCc1nnc(NC(=O)C(NS(=O)(=O)c2ccc3c(c2)OCCO3)C(C)C)s1 (stereo unspecified) | 0.5%
O=C1c2oc3ccccc3c(=O)c2C(c2cccnc2)N1Cc1ccco1 (stereo unspecified) | -5.1%
COc1ccc(C)cc1NC(=O)CN1CCN(c2ccccc2F)CC1 | 0.6%
Cn1c(=O)[nH]c(=O)c2c1nc(Br)n2Cc1ccccc1F | -4.9%
NCCC[C@@](N)(C(=O)O)C(F)F | 2.8%

Taken from above:
CCc1nnc(NC(=O)C(NS(=O)(=O)c2ccc3c(c2)OCCO3)C(C)C)s1 (stereo unspecified) | HSD17B inhib = 0.5%
CCCn1c(=O)c2ccccc2n2c(SCC(=O)NCc3cccs3)nnc12 | HSD17B inhib = -1.9%

Next section.
SMILES | HSD17B inhib
COc1ccc(CNn2c(C)nc3ccccc3c2=O)cc1 | 6.3%
CCOC(=O)CCCNC(=O)CCNC(=O)c1ccc(OC(C)C)cc1 | 9.5%
CS(C)(=O)=NS(=O)(=O)c1ccc(Cl)cc1 | 6.5%
COc1ccc2cc(CN(Cc3ccco3)Cc3nnnn3C3CCCCC3)c(=O)[nH]c2c1 | -13.6%
CN(C)c1cc2c(Nc3ccc4c(cnn4Cc4ccccc4)c3)ncnc2cn1 | -7.7%
c1ccc(OCc2nc3ccccc3s2)cc1 | 3.0%
Clc1ccc([C@H](Cn2ccnc2)OCc2csc3c(Cl)cccc23)c(Cl)c1 | -6.9%[25.6 µM]
COc1ccc(C(NC(=O)CNC(C)=O)C(=O)Nc2ccc3c(c2)OCCO3)cc1 (stereo unspecified) | 2.7%
CCOc1cc2[nH]c(=O)n(CCCCC(=O)NC3CCCCCC3)c(=O)c2cc1OCC | -28.9%
Cc1c(C(=O)NCc2ccc3c(c2)OCO3)oc2ccc(S(=O)(=O)N3CCC(C)CC3)cc12 | u
O=C(CCS(=O)(=O)c1cccc2nsnc12)N1CC(=O)N(CCc2ccccc2)C(=O)C1 | -11.5%
Cc1nn2c(NCCCN3CCOCC3)c3c(nc2c1-c1ccccc1)CCC3 | 3.3%
COc1ccc(C(=O)Nc2cc(C)on2)cc1 | 2.7%
CCCC(=O)Nc1cccc(NC(=O)CN2CCN(c3ccccc3OC)CC2)c1 | -9.3%
CCOc1ccc(-c2csc(NC(=O)C3CCCO3)n2)cc1 (stereo unspecified) | -1.2%
O=C(Cn1cnc2c(nnn2-c2ccc(F)cc2)c1=O)N1CCCc2ccccc21 | 4.9%
O=C(NCC(c1cccnc1)N1CCOCC1)c1ccco1 (stereo unspecified) | 3.9%
CCOc1ccc(OCc2cccc(C(=O)N3CCCC3)c2)cc1 | 3.9%
CC1CCCCN1C(=O)CSc1nnc(-c2c[nH]c3ccccc23)o1 (stereo unspecified) | -0.7%
O=C(NCc1ccco1)C1CCN(S(=O)(=O)N2CCOCC2)CC1 | 1.2%
Cc1ccc(Cn2c(SCC(=O)Nc3cc(C)on3)nc3ccccc3c2=O)cc1 | -3.2%
Cc1cn2c(-c3cccnc3)nnc2s1 | 1.6%
COc1ccccc1-c1nc(N2CCN(C)CC2)c2ccccc2n1 | 1.3%
Cc1ccccc1-c1cc(NCCN2CCOCC2)ncn1 | -1.2%
Cn1c(C(=O)N2CCC(C(N)=O)CC2)cc2c(=O)n(C)c3ccccc3c21 | -10.8%
CCOCCCNS(=O)(=O)c1ccc(NC(=O)c2ccccc2)cc1 | 8.5%
CCOP(=O)(c1c(F)c(F)c(F)c(F)c1F)C(O)c1ccccc1 (stereo unspecified) | -16.5%
O=C(O)/C=C\C(=O)N1Cc2cc3ccccc3nc2C1 | -0.5%[11.4 µM]
COc1ccc(N2CCN(C(=O)c3ccc4c(c3)OCO4)CC2)cc1 | -0.7%
COc1ccc(S(=O)(=O)N(C)CC(=O)N2CCCCC2)cc1Cl | 4.7%
Cc1cc(=O)[nH]c(SCC(=O)NCCOc2ccccc2)n1 | -0.3%
CS(=O)(=O)c1ccc2nc(NC(=O)c3ccco3)sc2c1 | -8.9%
CCN(CC)S(=O)(=O)c1ccc2oc(C(=O)NCc3ccc(F)cc3)c(C)c2c1 | -6.2%
O=C(NCCC1=CCCCC1)c1ccc2c(=O)n3c(nc2c1)CCCCC3 | 3.4%
CCOC(=O)c1sc(NC(=O)C(CC)Sc2nccn2C)nc1C (stereo unspecified) | 0.8%
CN1CCN(c2nc(-c3cccnc3)nc3ccccc23)CC1 | -7.3%&5.1%
CS(=O)(=O)N1CCC[C@@]2(CCN(c3ccccn3)C2)C1 | 31.6µM*
Cc1ccc(-c2noc(CN(C(=O)CCN3C(=O)c4ccccc4C3=O)C(C)C)n2)cc1 | 1.9%
Cc1nc(SCC(=O)N2CCN(C(=O)c3ccco3)CC2)c2c(C)c(C)sc2n1 | 7.0%
CC(=O)N1CCc2c(sc(NC(=O)c3ccc4c(c3)OCCO4)c2C#N)C1 | -11.0%
COCCn1c(=O)c(-c2ccc(OC)cc2)nc2cnc(OC)nc21 | -25.3%
COc1cc(NC(=O)C2CCCN2C(=O)OCc2ccccc2)cc(OC)c1 (stereo unspecified) | 6.9%
O=C(NCCc1ccc(F)cc1)N1CCOCC1 | 6.4%
